AF4-AF9 inh: blocks AF4 peptide binding to human AF9; P42568; inhibition, % at 10 µM; AID 651704; AlphaScreen, biotin-AF4 peptide binding to FLAG-AF9; actives 0.47% (n = 350,000);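 active = every replicate reaching a set inhibition limit, whatever the replicate mean, cut at about 25% in these data; inconclusive = mean inhibition reaches that limit but some replicates miss it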;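 also: 0% = plate neutral control median and 100% = total signal loss; the record names both 10 and 1 µM as test concentration; the first replicate is given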
Target sequence (P42568 whole entry, looked up): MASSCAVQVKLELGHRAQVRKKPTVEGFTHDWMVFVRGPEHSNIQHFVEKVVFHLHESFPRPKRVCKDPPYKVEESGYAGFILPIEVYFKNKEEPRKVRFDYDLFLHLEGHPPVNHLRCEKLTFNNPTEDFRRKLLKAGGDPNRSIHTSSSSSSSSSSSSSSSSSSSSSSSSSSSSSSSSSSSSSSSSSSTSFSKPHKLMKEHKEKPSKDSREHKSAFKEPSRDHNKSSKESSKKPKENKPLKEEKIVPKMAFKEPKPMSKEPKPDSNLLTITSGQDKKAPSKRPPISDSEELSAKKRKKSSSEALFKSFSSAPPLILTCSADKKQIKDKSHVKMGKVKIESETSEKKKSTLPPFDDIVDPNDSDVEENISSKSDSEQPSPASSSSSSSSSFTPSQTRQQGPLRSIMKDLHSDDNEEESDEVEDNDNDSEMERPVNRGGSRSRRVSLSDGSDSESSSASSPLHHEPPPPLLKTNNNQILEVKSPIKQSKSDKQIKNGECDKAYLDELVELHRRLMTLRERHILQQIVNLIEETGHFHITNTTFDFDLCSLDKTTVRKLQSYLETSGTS
RanGTP-Imp inh: inhibitors of RanGTP-importin-beta interaction, primary screen, biochemical, FRET, CFP-Ran, YFP-importin-beta, homogeneous; cell-free CFP-Ran/YFP-importin-beta FRET ratio; inhibition, % (test concentration not listed); actives 1.1% (n = 300,000); AID 2216;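 active = most replicates above 15%; inconclusive = exactly half above 15%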;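 also: 0% = DMSO wells and 100% = Ran loaded with GDP instead of GTP; wells of about 40 µL received 100 nL stock; the first replicate is given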
Vif A3G: inhibitors of Vif binding to APOBEC3G peptide, primary screen, biochemical, TR-FRET, GST-Vif 1-94, biotin-A3G peptide, dose response retest (AID 1117319); TR-FRET GST-Vif / biotin-A3G peptide binding; higher % means a stronger effect; test concentration not given here; strong numbers were not always called active; inhibition, %; hits with a dose series show IC50 in µM; actives 0.57% (n = 260,000);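 active = above the screen mean plus three standard deviations and confirmed in dose response; inconclusive = results disagree or hit not tested in dose response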;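 also: Vif residues 1-94 fused to GST binding biotinylated APOBEC3G peptide 110-148; 0% = full assay without inhibitor and 100% = GST in place of GST-Vif; retest series ran down from 100 µM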
T cruzi repl: blocks replication of Trypanosoma cruzi. T. cruzi beta-gal in NIH3T3, luminescence, 90 h. inhibition, % (test concentration not listed). actives 1.4% (n = 300,000). AID 1885;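 active = mean inhibition across valid replicates above about 55%, limit read from the data; inconclusive = mean below that limit but half or more replicates reach it; inactive = mean below it, under half of replicates reach it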;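 also: signal also drops with host cell toxicity which is not excluded here; 0% = plate median of DMSO wells and 100% = zero luminescence signal; higher percent means less beta-gal luminescence so fewer parasites; stock transfer was 50 nL into about 50 µL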
A1 inh: inhibitors of the anti-apoptotic protein A1, read as caspase activation; MEF A1-2A-BIM cells, Caspase-Glo 3/7 luminescence, 3 h; percent of clofoctol response, vehicle zero; caspase activation, % (no concentration beside the values); actives 0.066% (n = 330,000); AID 2462;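 active = over half of replicate activation scores above 10%, or exactly half above 10 with the replicate mean above 10; inconclusive = replicate mean below 10 yet half the replicates above 10; inactive = over half of replicates below 10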;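 also: wells of about 30 µL received 50 nL stock; many hits fall short of the cut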
Beta apoptosis: beta cell apoptosis inhibition; protection from apoptosis, % (test concentration not listed); actives 0.8% (n = 300,000); INS-1E cytokine-induced death, ATP luminescence, 48 h; percent of positive-control rescue, neutral wells zero; AID 435005;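 active = all replicates at 75% or more, or half of them and the mean; inconclusive = half reach 75% but not the mean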;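 also: 0% = cytokine-treated negative control wells and 100% = positive control rescue; higher means more ATP so stronger rescue from cytokine killing; wells of about 40 µL received 100 nL stock; the first replicate is given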
Calb FLC: C. albicans growth modulation with fluconazole. C. albicans CaCi-2 (fluconazole-resistant clinical isolate) + fluconazole, Alamar Blue growth, 48 h. growth inhibition, % (concentration not given with the values). actives 0.57% (n = 300,000). AID 1979;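 active = most replicates above 75%; inconclusive = exactly half above 75%; inactive = most below 75%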;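 also: all wells also contain fluconazole at 8 µg/ml as a sub-toxic cotreatment; 0% = median of DMSO wells and 100% = median of geldanamycin control wells; wells of about 8 µL received 7.5 nL stock; the first replicate is given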
rRNA inh HTS: inhibits bacterial ribosomal RNA function over humanized ribosomes; E. coli WT GFP vs humanized-ribosome RFP mutants, fluorescence, 24 h; active compounds read low; DMSO median 0, no signal -100; GFP signal change (wild-type ribosome), % (test concentration not listed); actives 1.6% (n = 350,000); AID 720706;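 active = significant combined selectivity score with lowered wild-type GFP, culture density cut under 30%, mutant RFP and density less affected; inactive = any of these conditions unmet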; also: one replicate is shown; some compounds called inactive have numbers as strong as hits
rRNA inh HTS OD600: recorded beside rRNA inh HTS, whose call it bears; OD600 change, %; measured here: OD600 growth;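 optical density of the mix in the first replicate; 0 = DMSO median and -100 = no signal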
rRNA inh HTS RFP: recorded beside rRNA inh HTS, whose call it bears; RFP signal change, %; measured here: RFP humanized mutant strains;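 first replicate; 0 = DMSO median and -100 = no signal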
* = called active by the depositor; ? = inconclusive; · = not tested or not shown. The list is partial, so the mix of outcomes need not match the whole.

[1] CC(C)(C)NS(=O)(=O)c1ccc(OCC(=O)N2CCN(Cc3ccccc3)CC2)cc1
[2] COC(=O)C1=C(c2ccc(C(C)=O)cc2)C[C@@H]2CC[C@H]1N2C(=O)NCc1ccc(F)cc1
[3] CCCNC(=O)N1[C@H]2CC[C@@H]1C(C(=O)OC)=C(c1ccc(OC)c(OC)c1)C2
[4] CC1(C)C2([N+](=O)[O-])CN3CN(C2)CC1([N+](=O)[O-])C3
[5] COc1ccc(NP(=O)(Oc2ccccc2OC)Oc2ccccc2OC)cc1
[6] O=C1Nc2ccccc2C(c2ccccc2)=NC1O (stereo not drawn)
[7] CC(=O)NC(Cc1ccc(N(CCCl)CCCl)cc1)C(=O)O (stereo not drawn)
[8] CSc1ccc(CN2CCN(C(=O)COc3cccc(C)c3)CC2)cc1

Assay by compound | 1 | 2 | 3 | 4 | 5 | 6 | 7 | 8
rRNA inh HTS OD600 | -2.0 | -2.9 | 13.0 | 12.1 | -39.9 | 3.1 | 8.2 | -41.3
Vif A3G | 6.3% | · | · | 4.4% | -8.8% | 3.4% | -2.4% | ·
AF4-AF9 inh | -2.5 | 0.4 | -2.5 | 0.9 | 0.0 | -1.7 | -2.0 | 2.0
Beta apoptosis | 5.7 | -10.6 | 0.4 | -1.9 | -1.3 | -10.5 | · | 0.5
T cruzi repl | 45.6 | · | · | -10.7 | 2.3 | -4.2 | -19.0 | 33.4
Calb FLC | 0.7 | · | · | -2.5 | 49.4 | 1.4 | -0.1 | 24.5
rRNA inh HTS RFP | -2.9 | -2.4 | -3.1 | -0.3 | -3.8 | 3.0 | -1.7 | -4.2
RanGTP-Imp inh | 2.4 | · | · | 8.4 | -2.0 | -1.5 | -4.7 | -0.9
rRNA inh HTS | -4.7 | -0.7 | 14.1 | 13.6 | -23.4 | 0.2 | 13.6 | -39.5
A1 inh | 0.3 | 0.1 | -0.8 | 0.8 | -0.7 | -0.4 | 0.6 | 1.0

[9] Cc1cc(NC(=O)CCl)nn1C
[10] COc1ccc(CC(=O)N2CCN(C)CC2)cc1OC
[11] c1cc(CNCCc2ccc3c(c2)OCO3)ccn1
[12] CCC(NC(=O)OC(C)(C)C)C(=O)Oc1cc(C)cc2oc(=O)c3c(c12)CCC3 (stereo not drawn)
[13] Cc1ccc(/C=C2\C(=O)NC(=O)N(Cc3ccccc3Cl)C2=O)o1
[14] CC(C)CCCn1c(O)c(/C=C2/C=CC=N2)c(=O)[nH]c1=O
[15] CCCC(=O)OCC[N+](C)(C)C
[16] O=C(c1ccc(F)c([N+](=O)[O-])c1)N1CC2CC(C1)c1cccc(=O)n1C2 (stereo not drawn)

Assay by compound | 9 | 10 | 11 | 12 | 13 | 14 | 15 | 16
rRNA inh HTS OD600 | 16.9 | · | -0.4 | · | 6.4 | · | 10.2 | 12.4
Vif A3G | -8.1% | 1.7% | · | 3.8% | 26.1% | 18.1% | ? | -2.4%
AF4-AF9 inh | -0.7 | · | -2.5 | · | -9.7 | · | -1.6 | -2.2
Beta apoptosis | 5.2 | -1.9 | -8.4 | 16.3 | 5.9 | -5.0 | -8.0 | -8.6
T cruzi repl | -11.6 | -3.8 | 1.9 | -15.3 | -19.8 | -22.5 | 1.4 | 20.4
Calb FLC | 1.1 | -3.5 | -2.7 | 6.8 | -12.3 | 2.9 | -3.9 | 3.0
rRNA inh HTS RFP | -0.2 | · | 9.9 | · | 9.0 | · | -1.2 | -1.4
RanGTP-Imp inh | 7.8 | 0.9 | 3.3 | 1.9 | -0.6 | 4.5 | -0.3 | 1.9
rRNA inh HTS | 6.4 | · | 6.3 | · | 1.3 | · | 4.9 | -7.2
A1 inh | -2.4 | 0.9 | 0.9 | -0.5 | 1.7 | 0.2 | 1.6 | 0.4

[17] COc1ccc(CCNC2CCCCC2)cc1
[18] Cc1cc(/C=C2\C(=O)NC(=O)N(Cc3ccccc3)C2=O)c(C)n1C1CC1
[19] CC(C)c1ccc(N2C(=O)NC(=O)/C(=C\c3cnc(-c4ccccc4)nc3)C2=O)cc1
[20] CC1=CC(=O)OC2CC3OC4C[C@@H](C)C5OC6CC7O[C@]8(C)C/C=C\C9OC%10CC%11OC(CC(C)CO)CC(O)[C@]%11(C)OC%10CC9OC8C[C@]7(C)O[C@]6(C)CCC5OC4C[C@]3(C)OC12 (stereo partly drawn)
[21] Cc1cc(C)cc(-n2c(C)cc(/C=C3\C(=O)NC(=O)N(C)C3=O)c2C)c1
[22] OC(c1ccccc1)(c1ccccc1)c1ccncc1
[23] NC(=O)c1ccc(N=Nc2c(O)[nH]c(=O)[nH]c2=O)cc1
[24] CCCCn1c(O)c(C(CC)=NC(C)c2ccccc2)c(=O)[nH]c1=O (stereo not drawn)

Assay by compound | 17 | 18 | 19 | 20 | 21 | 22 | 23 | 24
rRNA inh HTS OD600 | 9.7 | · | · | 14.2 | -2.3 | · | · | -5.7
Vif A3G | -5.6% | -1.2% | ? | 0.0% | ? | · | -1.1% | 1.3%
AF4-AF9 inh | 1.7 | 3.8 | · | -1.9 | 1.4 | -0.8 | · | 5.9
Beta apoptosis | -1.6 | -3.6 | -3.8 | 9.5 | 3.0 | -6.2 | 2.0 | 2.5
T cruzi repl | -5.7 | -7.0 | 6.1 | -9.3 | 2.9 | -26.9 | -7.8 | -4.1
Calb FLC | -17.6 | -6.1 | -0.5 | -3.6 | 1.6 | -20.2 | 6.2 | 3.1
rRNA inh HTS RFP | 4.2 | · | · | -1.2 | 0.7 | · | · | 11.8
RanGTP-Imp inh | 1.3 | ? | 4.7 | 2.2 | ? | 1.1 | -5.0 | -4.1
rRNA inh HTS | 21.1 | · | · | 13.3 | 4.9 | · | · | -4.7
A1 inh | 0.9 | 0.2 | 0.1 | 0.5 | 0.1 | 0.9 | 1.2 | -0.3

12 compounds already listed, sorted by number of heavy atoms, lowest first:
[9] Cc1cc(NC(=O)CCl)nn1C
[17] COc1ccc(CCNC2CCCCC2)cc1
[11] c1cc(CNCCc2ccc3c(c2)OCO3)ccn1
[10] COc1ccc(CC(=O)N2CCN(C)CC2)cc1OC
[14] CC(C)CCCn1c(O)c(/C=C2/C=CC=N2)c(=O)[nH]c1=O
[13] Cc1ccc(/C=C2\C(=O)NC(=O)N(Cc3ccccc3Cl)C2=O)o1
[24] CCCCn1c(O)c(C(CC)=NC(C)c2ccccc2)c(=O)[nH]c1=O (stereo not drawn)
[16] O=C(c1ccc(F)c([N+](=O)[O-])c1)N1CC2CC(C1)c1cccc(=O)n1C2 (stereo not drawn)
[18] Cc1cc(/C=C2\C(=O)NC(=O)N(Cc3ccccc3)C2=O)c(C)n1C1CC1
[12] CCC(NC(=O)OC(C)(C)C)C(=O)Oc1cc(C)cc2oc(=O)c3c(c12)CCC3 (stereo not drawn)

Assay by compound | 9 | 17 | 11 | 10 | 14 | 13 | 24 | 16 | 18 | 12
rRNA inh HTS OD600 | 16.9 | 9.7 | -0.4 | · | · | 6.4 | -5.7 | 12.4 | · | ·
Vif A3G | -8.1% | -5.6% | · | 1.7% | 18.1% | 26.1% | 1.3% | -2.4% | -1.2% | 3.8%
AF4-AF9 inh | -0.7 | 1.7 | -2.5 | · | · | -9.7 | 5.9 | -2.2 | 3.8 | ·
Beta apoptosis | 5.2 | -1.6 | -8.4 | -1.9 | -5.0 | 5.9 | 2.5 | -8.6 | -3.6 | 16.3
T cruzi repl | -11.6 | -5.7 | 1.9 | -3.8 | -22.5 | -19.8 | -4.1 | 20.4 | -7.0 | -15.3
Calb FLC | 1.1 | -17.6 | -2.7 | -3.5 | 2.9 | -12.3 | 3.1 | 3.0 | -6.1 | 6.8
rRNA inh HTS RFP | -0.2 | 4.2 | 9.9 | · | · | 9.0 | 11.8 | -1.4 | · | ·
RanGTP-Imp inh | 7.8 | 1.3 | 3.3 | 0.9 | 4.5 | -0.6 | -4.1 | 1.9 | ? | 1.9
rRNA inh HTS | 6.4 | 21.1 | 6.3 | · | · | 1.3 | -4.7 | -7.2 | · | ·
A1 inh | -2.4 | 0.9 | 0.9 | 0.9 | 0.2 | 1.7 | -0.3 | 0.4 | 0.2 | -0.5

[19] CC(C)c1ccc(N2C(=O)NC(=O)/C(=C\c3cnc(-c4ccccc4)nc3)C2=O)cc1
[20] CC1=CC(=O)OC2CC3OC4C[C@@H](C)C5OC6CC7O[C@]8(C)C/C=C\C9OC%10CC%11OC(CC(C)CO)CC(O)[C@]%11(C)OC%10CC9OC8C[C@]7(C)O[C@]6(C)CCC5OC4C[C@]3(C)OC12 (stereo partly drawn)

Assay by compound | 19 | 20
rRNA inh HTS OD600 | · | 14.2
Vif A3G | ? | 0.0%
AF4-AF9 inh | · | -1.9
Beta apoptosis | -3.8 | 9.5
T cruzi repl | 6.1 | -9.3
Calb FLC | -0.5 | -3.6
rRNA inh HTS RFP | · | -1.2
RanGTP-Imp inh | 4.7 | 2.2
rRNA inh HTS | · | 13.3
A1 inh | 0.1 | 0.5

Continued:
[25] COc1ccc(NP(=O)(Oc2ccc(Cl)cc2)Oc2ccc(Cl)cc2)cc1OC
[26] O=[N+]([O-])[N-][n+]1cnn(Cc2ccccc2)c1
[27] COC(=O)CNC(=O)c1cn(CCC#N)nc1-c1ccc(F)cc1
[28] CN1CCN(c2c[nH]c(=O)[nH]c2=O)CC1

Assay by compound | 25 | 26 | 27 | 28
rRNA inh HTS OD600 | -16.7 | 6.5 | 9.2 | ·
Vif A3G | 4.6% | ? | 11.4% | ?
AF4-AF9 inh | 2.3 | -0.8 | 1.3 | ·
Beta apoptosis | -3.6 | -6.3 | -4.0 | -2.0
T cruzi repl | 12.9 | -2.6 | -16.1 | -8.7
Calb FLC | 0.3 | 12.3 | 11.5 | -2.1
rRNA inh HTS RFP | -7.4 | -6.4 | 0.2 | ·
RanGTP-Imp inh | 1.5 | -10.6 | -3.6 | -2.8
rRNA inh HTS | -5.7 | 6.5 | 11.7 | ·
A1 inh | -0.3 | -0.5 | 0.1 | 0.7
